Screening data from PubChem.
Marburg entry inh: blocks Marburg virus binding to or entry into cells; 1.8% of 300,000 active; Potency, µM (series often up to 37.8 µM), for inactives: top-dose activity change, negative = inhibition, hits mostly inhibitors; Marburg virus pseudotyped entry inhibition, cell reporter; control for the full effect not named in the record; about a third of the inactives were read at about 46 µM; active = well fitted inhibition curve with a large enough effect; inconclusive = small, poorly fitted or top-dose-only effect, or effect the other way; inactive = flat fitted curve, though single readings scatter; tested in HEK293 cells; about a fifth of its hits are not listed in these tables; further: on the % scale 0 is the no-effect control and ±100 the full control effect; luciferase read-out
Cruzain inh noDet: cruzain (T. cruzi) inhibition without detergent. AID 1476. purified cruzain, Z-FR-AMC fluorescence, no detergent. 2.3% of 200,000 active. P25779. Potency, µM, for inactives: max response, negative = inhibition, usual class: inhibitors; active means well fitted curve in the direction sought with a large enough effect; inconclusive means small, poorly fitted or top-dose-only effect, or another doubt; inactive means no such curve, though single readings can be large; an effect the other way counts as inactive or inconclusive;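 further: plate controls were enzyme without inhibitor for no effect and buffer without enzyme for full effect; nearly all actives have a fitted effect of over 40% in size; top concentration of the series not given in the record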
Target sequence (P25779 123-467 limits assumed): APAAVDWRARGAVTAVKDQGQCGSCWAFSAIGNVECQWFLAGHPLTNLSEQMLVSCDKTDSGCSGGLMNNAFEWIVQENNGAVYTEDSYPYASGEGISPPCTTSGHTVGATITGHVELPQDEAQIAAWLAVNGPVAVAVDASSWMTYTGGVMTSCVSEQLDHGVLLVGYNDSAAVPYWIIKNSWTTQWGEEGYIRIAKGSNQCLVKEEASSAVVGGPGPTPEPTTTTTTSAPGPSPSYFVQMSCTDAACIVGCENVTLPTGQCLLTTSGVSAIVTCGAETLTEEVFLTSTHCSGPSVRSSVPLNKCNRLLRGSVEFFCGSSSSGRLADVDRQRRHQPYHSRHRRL
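Detergent-free condition (0.00005% Triton X-100) in acetate buffer pH 5.5 with DTT. 1.5 nM enzyme and compound were pre-mixed 15 min, then 2 uM Z-FR-AMC substrate added; reaction progress from fluorescence change between first and third reads (60 s).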
NS1 inh: inhibitors of influenza NS1 protein function | S. cerevisiae slowed by influenza A NS1, growth recovery by OD600 | Potency, µM (doses to about 46.1 µM), for inactives: at the highest dose activity, positive = more growth | 0.4% of 270,000 active; further: actives are rising curves; nearly all actives have a fitted effect of over 50% in size
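Recovery from NS1-induced slow growth read by OD600 in budding yeast switched to galactose assay medium (pH 6.0, -URA) at 1:100 dilution. Compound 23 nl per well; the matching strain lacking NS1 serves as control.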
Cruzain inh Det: cruzain (T. cruzi) inhibition with detergent; P25779; purified cruzain, Z-FR-AMC fluorescence, 0.01% Triton; Potency, µM, for inactives: max response, negative = inhibition, most hits filed as inhibitors; 0.43% of 200,000 active; AID 1478; active means well fitted curve in the direction sought with a large enough effect; inconclusive means small, poorly fitted or top-dose-only effect, or another doubt; inactive means no such curve, though single readings can be large; an effect the other way counts as inactive or inconclusive;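 further: plate controls were neutral wells for no effect and buffer without enzyme for full effect; nearly all actives have a fitted effect of over 40% in size; top concentration of the series not given in the record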
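Enzyme 1.5 nM, Z-FR-AMC 2 uM, NaOAc 100 mM pH 5.5, DTT 5 mM, Triton X-100 0.01%; 15 min RT compound preincubation; kinetic ex360/em450, 60 s delta.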
LASV entry inh: Lassa virus entry inhibition; Lassa virus pseudotype entry inhibition, cell reporter; control for the full effect not named in the record; Potency, µM (highest dose often 37.9 µM), for the others: at the top dose activity change, negative = inhibition, hits mostly inhibitors; 1.2% of 300,000 active; AID 540256; active means well fitted inhibition curve with a large enough effect; inconclusive means small, poorly fitted or top-dose-only effect, or effect the other way; inactive means flat fitted curve, though single readings scatter; tested in HEK293 cells; further: on the % scale 0 is the no-effect control and ±100 the full control effect; nearly all actives have a fitted effect of over 50% in size; luciferase read-out
RE007 growth inh: less growth of the S. pombe RE007 Vpr strain. S. pombe RE007 Vpr strain, BacTiter-Glo ATP luminescence, 24 h; control for the full effect not named in the record. Potency, µM (doses to about 92.2 µM), for the others: at the top dose activity change, negative = less growth. 0.21% of 360,000 active. AID 651644; active = well fitted falling curve with a large enough effect; inconclusive = small, poorly fitted or top-dose-only effect; inactive = no such curve, though single readings can be large or run the other way;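 further: on the % scale 0 is the no-effect control and ±100 the full control effect; nearly all actives have a fitted effect of over 50% in size; the assay follows cell death caused by Vpr and the record does not say whether a fall means rescue or toxicity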
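Fission yeast RE007 carrying one integrated HIV-1 vpr copy, seeded at OD 0.01 in PMG+AL medium with 23 nL pinned compound. Grown 24 h at 30 degrees; viability read by BacTiter-Glo luminescence after 5 min.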
SARS PLpro yeast: blocks SARS-CoV papain-like protease in a yeast assay | S. cerevisiae expressing SARS-CoV PLpro, growth rescue; control for the full effect not named in the record | AID 485353 | 0.19% of 330,000 active | Potency, µM (doses to about 32.9 µM), without a hit: top-dose activity, positive = growth rescue; further: 0% is about no effect; nearly all actives have a fitted effect of over 55% in size; growth read by luminescence after 48 h
StopGo reporter: FMDV 2A StopGo reporter, luciferase signal | 1.2% of 410,000 active | human cells with a luciferase reporter of 2A StopGo recoding; control for the full effect not named in the record | AID 1159524 | Potency, µM (series often up to 57.9 µM), for inactives: top-dose signal change, negative = less light; active = well fitted falling curve with a large enough effect; inconclusive = small, poorly fitted or top-dose-only effect; inactive = no such curve, though single readings can be large or run the other way; tested in HEK293T cells; further: on the % scale 0 is the no-effect control and ±100 the full control effect; nearly all actives have a fitted effect of over 45% in size; luciferase light after 4 h
An asterisk follows results filed as active; ? = inconclusive; / = not tested or not shown; & = joins results of further samples; [ ] = another dose, or the depositor's remark. Unless noted, the call rests on the fitted dose curve; in most records, active means well fitted rising curve with a large enough effect; inconclusive means small, poorly fitted or top-dose-only effect; inactive means no such curve, though single readings can be large or run the other way. Potency means the concentration at half of the fitted maximal effect. Not a hit list; about 4.7% have a hit in one of these screens.

Values in the order – Marburg entry inh, Cruzain inh noDet, NS1 inh, Cruzain inh Det, LASV entry inh, RE007 growth inh, SARS PLpro yeast, StopGo reporter
COc1ccc(/C=N/N2C(C)CCCC2C)cc1OC (stereo unspecified)
 : ?, /, 6%, /, -7%, -7%, -1%, 10%
O=C(CSc1ccc(-c2ccco2)nn1)NCc1ccccc1Cl
 : 15%, 4%, -5%, -4.0%, 11%, -10%, ?, 2%
CCOCCCNC(=O)CN(c1cc([N+](=O)[O-])ccc1OC)S(C)(=O)=O
 : 18%[46.1 µM], /, -3%, /, 10%, -13%, 0%, 5%
Cc1ccc(NC(=O)CN2C(=O)NC3(CCc4ccccc43)C2=O)cc1S(=O)(=O)N1CCCCC1 (stereo unspecified)
 : -15%, /, /, /, -16%, 13%, 2%, ?
Cn1cc(C(=O)Cc2ccccc2)c2ccccc21
 : -6%, -8%, -10%, -6.0%, 10%, -23%, 24%, 13%
O=C(CSCc1ccccc1)Nc1cccc(F)c1
 : 22%, 2%, -3%, -2.3%, 30%, -25%, -26%, 84%[activator]
Cc1c(C)n(-c2ccc(Cl)cc2)c2ncnc(N)c12
 : 8%[46.1 µM], /, -23%, /, -8%[46.1 µM], -4%, 1%, -3%
COc1ccc(NC(=O)CCSc2nnc(C)s2)cc1
 : -1%, -7%, -1%, 4.5%, 1%, 16%, /, 31%[activator]
COc1ccc2[nH]c(=O)c(CN(CCCN(C)C)C(=O)Nc3ccc(F)cc3)cc2c1
 : ?, -1%, ?, -4.6%, -19%, 6%, -2%, -19%
COc1ccc(N(CC(=O)NCc2ccco2)C(=O)CCC(=O)Nc2nccs2)c(OC)c1
 : -1%[46.1 µM], /, -3%, /, 9%[46.1 µM], 4%, 0%, -5%

Additional compounds follow:
Values in the order – Marburg entry inh, Cruzain inh noDet, NS1 inh, Cruzain inh Det, LASV entry inh, RE007 growth inh, SARS PLpro yeast, StopGo reporter
COc1ccccc1C(=O)NCc1nnc(SC(C)C(=O)Nc2nccs2)n1C (stereo unspecified)
 : -1%[46.1 µM], /, 16%, /, ?, 2%, 2%, -11%
Cc1cccc(NC(=O)Nc2ccc(F)cc2)n1
 : ?, -9%, -3%, 3.1%, ?, -9%, -1%, 17%&63%
O=C(NCCCN1CCCC1=O)c1cccc(S(=O)(=O)Nc2ccc(F)cc2)c1
 : 16%, /, /, /, -10%, 15%, 3%, 62%[activator]
COc1ccc(-c2[nH]ncc2CNC(C)CCn2cccn2)c(F)c1 (stereo unspecified)
 : 5%[46.1 µM], /, 11%, /, -4%, 0%, 1%, -9%
CC(C)OC(=O)/C(C#N)=C/c1ccc(-c2ccc(Cl)c(Cl)c2)o1
 : /, 0%, /, -1.0%, 25%[46.1 µM], /, /, 1%
O=C(c1ccc2c(c1)OCO2)C1CCCN(Cc2ccc3nsnc3c2)C1 (stereo unspecified)
 : ?, /, -2%, /, 20%[46.1 µM], -5%, 0%, -23%
O=C(C1CCCCN1S(=O)(=O)c1ccc(F)cc1)N1CCN(c2ccccc2F)CC1 (stereo unspecified)
 : /, 0%, -47%, -2.6%, /, -8%, 3%, 0%
Cc1cc(C)cc(NC(=O)C(=O)NCC2CCCO2)c1 (stereo unspecified)
 : /, /, -7%, /, /, -4%, 0%, 54%[activator]
CCn1nc(C(=O)NC2=NCCS2)c2ccccc2c1=O
 : 6%[46.1 µM], -7%, -5%, -0.2%, 5%, -19%, 5%, 14%
C=CCNC(=O)c1onc(CSc2cc(C)cc(C)c2)c1C(=O)O
 : /, -3%, 15%, 1.1%, /, 24%, 2%, -19%

An excerpt from above in order of count of non-hydrogen atoms, low to high:
Values in the order – Marburg entry inh, Cruzain inh noDet, NS1 inh, Cruzain inh Det, LASV entry inh, RE007 growth inh, SARS PLpro yeast, StopGo reporter
COc1ccc(-c2[nH]ncc2CNC(C)CCn2cccn2)c(F)c1 (stereo unspecified)
 : 5%[46.1 µM], /, 11%, /, -4%, 0%, 1%, -9%
O=C(c1ccc2c(c1)OCO2)C1CCCN(Cc2ccc3nsnc3c2)C1 (stereo unspecified)
 : ?, /, -2%, /, 20%[46.1 µM], -5%, 0%, -23%
COc1ccccc1C(=O)NCc1nnc(SC(C)C(=O)Nc2nccs2)n1C (stereo unspecified)
 : -1%[46.1 µM], /, 16%, /, ?, 2%, 2%, -11%

The results go on.
Values in the order – Marburg entry inh, Cruzain inh noDet, NS1 inh, Cruzain inh Det, LASV entry inh, RE007 growth inh, SARS PLpro yeast, StopGo reporter
CCCCC(C(=O)NC1CCCC1)N(C(=O)c1snc(C(N)=O)c1N)c1ccc(F)cc1 (stereo unspecified)
 : ?, /, 8%, /, -5%, -13%, -4%, ?
CCN(CC)C(=O)NC1CC2CCCC(C1)N2Cc1ccccc1 (stereo unspecified)
 : ?, 1%, 1%, 4.1%, 10%, 2%, -1%, 6%
Cc1c(NC(=O)c2ccc(C(C)(C)C)cc2)cccc1[N+](=O)[O-]
 : -29%, 15%, -4%, 1.3%, -12%, 8%, 0%, 9%
COc1cccc(NC(=O)C2CCC(CNS(=O)(=O)c3ccc4c(c3)CC(C)N4C(C)=O)CC2)c1 (stereo unspecified)
 : -15%[46.1 µM], ?, -3%, -2.5%, -29%&-7%[46.1 µM], -10%, 0%, ?
Cc1cc2nc(-c3ccc(NC(=O)c4cccnc4)cc3)oc2cc1C
 : -7%, ?, -31%, -1.1%, 17%, ?, -4%, -11%
O=C(O)c1ccc(CNCc2ccccc2Cl)cc1
 : -7%, -1%, 3%, 1.5%, -1%, 8%, -2%, -10%
CC(C)CC1(C)NC(=O)N(CC(=O)Nc2ccc3c(c2)OCCO3)C1=O (stereo unspecified)
 : 5%, /, /, /, -7%, 5%, -7%, -18%
COc1cc(/C=N/NC(N)=O)ccc1OC(=O)c1ccc(C)cc1
 : /, -4%, 2%, -0.2%, /, /, 0%, /
CCOc1ccc(CCNC(=O)c2cc3c(C)nccc3[nH]c2=O)cc1OCC
 : -26%[46.1 µM], /, /, /, 2%, -10%, 3%, ?
O=C1N=C(c2ccccc2)C(c2ccccc2)N1 (stereo unspecified)
 : -5%, ?, ?, -4.1%, 11%, -8%, 13%, -7%

Filtered by structure: the compounds so far containing a COOH group
Values in the order – Marburg entry inh, Cruzain inh noDet, NS1 inh, Cruzain inh Det, LASV entry inh, RE007 growth inh, SARS PLpro yeast, StopGo reporter
C=CCNC(=O)c1onc(CSc2cc(C)cc(C)c2)c1C(=O)O
 : /, -3%, 15%, 1.1%, /, 24%, 2%, -19%
O=C(O)c1ccc(CNCc2ccccc2Cl)cc1
 : -7%, -1%, 3%, 1.5%, -1%, 8%, -2%, -10%

Next section.
Values in the order – Marburg entry inh, Cruzain inh noDet, NS1 inh, Cruzain inh Det, LASV entry inh, RE007 growth inh, SARS PLpro yeast, StopGo reporter
Cc1ccc(-n2ncc3c(NCCCN4CCOCC4)ncnc32)c(C)c1
 : /, 2%, 5%, -0.6%, /, -5%, -1%, 0%
Cn1c(=O)oc2cc(S(=O)(=O)CCC(=O)Nc3ccccc3)ccc21
 : /, /, -3%, /, /, 3%, -6%, 0%
Cc1cc[n+]2n1CC(O)C2 (stereo unspecified)
 : -2%[46.1 µM], /, 3%, /, ?, -12%, 1%, 23%
Cc1nc2c(c(=O)n1Cc1ccco1)c1nc3ccccc3nc1n2Cc1ccccc1
 : /, ?, 4%, -3.0%, /, /, -2%, /
c1cc2c3c(cccc3c1)NC1(CCCCCC1)N2
 : ?, 13µM*, -7%, -0.6%, 10%, -6%, 0%, -16%
O=C(Nc1ncccc1O)c1ccc(Cl)c(S(=O)(=O)N2CCCCCC2)c1
 : 3%, /, /, /, 17%, -15%, 0%, -7%
CC(=O)OC(COc1ccc(F)cc1)Cn1cnc2ccccc21 (stereo unspecified)
 : 27%[46.1 µM], /, -3%, /, 14%, -17%, 1%, 20%
CN(Cc1cccc(-n2cccn2)c1)Cc1cn(C)nc1-c1ccccc1F
 : ?, /, -3%, /, 1%, -10%, 0%, -26%
Cc1n[nH]c(C)c1S(=O)(=O)N1CCCC(C(=O)Nc2ccc(Cl)cc2)C1 (stereo unspecified)
 : -27%[46.1 µM], -19%, /, -3.5%, -19%[46.1 µM], /, /, 0%
CN(Cc1nc(-c2cnccn2)no1)Cc1n[nH]c2c1CCCCC2
 : /, /, -3%, /, /, -10%, -1%, -15%

The listing continues.
Values in the order – Marburg entry inh, Cruzain inh noDet, NS1 inh, Cruzain inh Det, LASV entry inh, RE007 growth inh, SARS PLpro yeast, StopGo reporter
CCOc1ccc(NC(=O)c2cnc3sc(N4CCOCC4)nn3c2=O)cc1
 : /, -7%, /, -0.4%, 2%[46.1 µM], /, /, -4%
COc1cccc(-c2cc(C(=O)N3CCN(Cc4ccc5c(c4)OCO5)CC3)on2)c1
 : /, /, -41%, /, /, -5%, -2%, 0%
Cc1nn(-c2ccccc2)c2sc(C(=O)OC3CCOC3=O)cc12 (stereo unspecified)
 : -1%, ?, -46%, -2.3%, ?, 13%, -17%, -20%
COc1cccc(N2CCN(C(=O)CN(c3ccc(C)cc3)S(=O)(=O)c3c(C)n[nH]c3C)CC2)c1
 : /, ?, -9%, -3.7%, /, -12%, -3%, 0%
Cc1cccc(-c2noc(CNC(=O)c3ccoc3C)n2)c1
 : /, /, -10%, /, /, 6%, -6%, -3%
Cc1ccc(/C=N\n2c(-c3ccccc3)n[nH]c2=S)s1
 : 5%, -4%, 16%, -1.9%, -17%, 16%, 6%, -12%
COc1ccc(Cc2nnc3n2N=C(c2cc4ccccc4o2)CS3)cc1OC
 : -4%&-4%, /, -82%, /, -9%, -2%, /, -22%
Cc1cnc(C(=O)OCC(=O)NC23CC4CC(CC(C4)C2)C3)cn1
 : ?, 6%, -13%, 8.0%, 27%, -1%, -5%, -10%

Quoted from the listing:
COc1cccc(N2CCN(C(=O)CN(c3ccc(C)cc3)S(=O)(=O)c3c(C)n[nH]c3C)CC2)c1 in RE007 growth inh has -12%
Cc1nn(-c2ccccc2)c2sc(C(=O)OC3CCOC3=O)cc12 (stereo unspecified) in Cruzain inh Det has -2.3%
